Source: PubChem BioAssay (National Center for Advancing Translational Sciences (NCATS))
RE007 growth inh: less growth of the S. pombe RE007 Vpr strain. S. pombe RE007 Vpr strain, BacTiter-Glo ATP luminescence, 24 h; control for the full effect not named in the record. Potency, µM (highest dose often 92.2 µM), for the others: top-dose activity change, negative = less growth. actives 0.21% (n = 360,000); active = well fitted falling curve with a large enough effect; inconclusive = small, poorly fitted or top-dose-only effect; inactive = no such curve, though single readings can be large or run the other way;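 note: nearly all actives have a fitted effect of over 50% in size; the assay follows cell death caused by Vpr and the record does not say whether a fall means rescue or toxicity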
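Fission yeast strain RE007, carrying one chromosomally integrated HIV-1 vpr copy, was seeded at OD 0.01 in PMG+AL medium with 23 nL pinned compound. After 24 h at 30 °C and 99% humidity, viability was read by BacTiter-Glo luminescence.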
2A StopGo: lowers the luciferase signal of an FMDV 2A StopGo reporter; human cells with a luciferase reporter of 2A StopGo recoding; control for the full effect not named in the record; Potency, µM (series often up to 57.9 µM), for inactives: at the top dose signal change, negative = less light; actives 1.2% (n = 410,000); AID 1159524; active = well fitted falling curve with a large enough effect; inconclusive = small, poorly fitted or top-dose-only effect; inactive = no such curve, though single readings can be large or run the other way; tested in HEK293T cells; note: nearly all actives have a fitted effect of over 45% in size; luciferase light after 4 h
Marburg entry inh: Marburg virus entry inhibition; Marburg virus pseudotyped entry inhibition, cell reporter; control for the full effect not named in the record; about a third of the inactives were read at about 46 µM; AID 540276; actives 1.8% (n = 300,000); Potency, µM (titrated, usually from 37.8 µM), for the others: top-dose activity change, negative = inhibition, hits mostly inhibitors; active = well fitted inhibition curve with a large enough effect; inconclusive = small, poorly fitted or top-dose-only effect, or effect the other way; inactive = flat fitted curve, though single readings scatter; tested in HEK293 cells; about a fifth of its hits are not listed in these tables; note: luciferase read-out
LASV entry inh: Lassa virus entry inhibition | Lassa virus pseudotype entry inhibition, cell reporter; control for the full effect not named in the record | Potency, µM (top dose mostly 37.9 µM), for the others: top-dose activity change, negative = inhibition, most hits filed as inhibitors | actives 1.2% (n = 300,000) | AID 540256; active means well fitted inhibition curve with a large enough effect; inconclusive means small, poorly fitted or top-dose-only effect, or effect the other way; inactive means flat fitted curve, though single readings scatter; tested in HEK293 cells; note: nearly all actives have a fitted effect of over 50% in size; luciferase read-out
Numbers without * were called inactive; ? = inconclusive; . = no result given; & = joins results of further samples; [ ] = another dose, or the depositor's remark. % is set by controls: 0 for no effect and ±100 for the full control effect; potency is the fitted concentration of half-maximal effect.

SMILES	RE007 growth inh	2A StopGo	Marburg entry inh	LASV entry inh
COc1ccc(Cl)cc1NS(=O)(=O)c1ccc2[nH]c3c(c2c1)CCCC3	.	30%	.	-15%[46.1 µM]
CCc1ccc2nc(N(CCN(CC)CC)C(=O)c3cccs3)sc2c1	.	-13%	.	12%[46.1 µM]
COc1cccc(CNC(=O)C2=C(C)C(=O)OC23CCCCCC3)c1	.	0%	.	18%[46.1 µM]
CSc1ccc(CCNC(=O)c2ccc(-n3c(C)cc4c3CCCC4)cc2)cc1	.	-19%	.	?
COc1ccc(Cn2c(SCc3ccc(C(=O)NC(C)C)cc3)nc3cccnc32)cc1	.	?	.	-5%[46.1 µM]
O=C(Cn1cc(S(=O)(=O)Cc2cccc(Cl)c2)c2ccccc21)Nc1ccc(F)c(Cl)c1	.	0%	.	-16%[46.1 µM]
O=C(COCc1cc(-c2ccc3c(c2)OCO3)on1)Nc1cc(C(F)(F)F)ccc1Cl	.	-21%	.	11%[46.1 µM]
CCN(CC)CCNC(=O)Cn1ncc2c([nH]c3ccccc32)c1=O	.	28%	.	23%[46.1 µM]
Cc1ccccc1CNC(=O)c1ccc(-n2c(C)cc3c2CCCC3)cc1	.	1%	.	?
CCCCN(CC)C(=O)C1CCCN(c2ncnc3c2nc2n3CCCCC2)C1 (stereo not drawn)	.	-30%	.	-24%[46.1 µM]
COc1ccc(-c2noc(N3CCN(c4ccc(C)cc4)C(C)C3)n2)cc1OC (stereo not drawn)	.	?	.	25%[46.1 µM]
CCCn1c2ccccc2c2cnn(CC(=O)NCc3cc(OC)ccc3OC)c(=O)c21	.	-14%	.	-14%[46.1 µM]
CC1CCN(c2cc3c(cc2F)c(=O)c(S(=O)(=O)c2cccc(Cl)c2)cn3Cc2ccccc2)CC1	.	1%	.	11%[46.1 µM]
CCCCn1cc(S(=O)(=O)c2ccc(CC)cc2)c(=O)c2cc(F)c(N3CCCC(C)C3)cc21 (stereo not drawn)	.	-2%	.	?
CCOc1cc(C(=O)Nc2ccc3nc(Nc4cccc(Cl)c4)cc(C)c3c2)cc(OCC)c1OCC	.	0%	.	-17%[46.1 µM]
CCCS(=O)(=O)N1CC(=O)N(c2ccc(Cl)cc2)C(C)(C(=O)NC2CCCC2)C1 (stereo not drawn)	.	12%	.	6%[46.1 µM]
Cc1cccc(CNC(=O)c2ccc(Cn3c(SCc4ccccc4)nc4cccnc43)cc2)c1	.	-8%	.	0%[46.1 µM]
COc1cc(OC)c(NC(=O)CSCc2nc(-c3ccc(OC)c(OC)c3)no2)cc1Cl	.	-13%	.	-7%[46.1 µM]
CCOc1ccccc1N(CC)C(=O)Nc1cn(C)c(=O)c2ccccc12	.	-11%	.	-17%[46.1 µM]
Clc1ccc(N2CCN(c3ncnc4c3nc3n4CCCC3)CC2)cc1	.	?	.	-18%[46.1 µM]
Cc1cccc(N2CCN(c3ncnc4c3nc3n4CCCCC3)CC2)c1C	.	-14%	.	-16%[46.1 µM]
CSc1ccc(CNC(=O)Cn2c(-c3cccs3)cc3cc(F)ccc32)cc1	.	-16%	.	-9%[46.1 µM]
CCN(CC)c1cc2c(cc1F)c(=O)c(S(=O)(=O)c1cc(C)ccc1C)cn2Cc1ccccc1	.	3%	.	?
Cc1ccc(Cl)cc1N1CCN(S(=O)(=O)c2ccc3[nH]c4c(c3c2)CCCC4)CC1	.	-17%	.	-15%[46.1 µM]
Cc1ccc(NC(=O)CN(C)S(=O)(=O)c2ccc3[nH]c4c(c3c2)CCCC4)c(Cl)c1	.	-23%	.	5%[46.1 µM]
COc1cc(Cl)c(NC(=O)CC(C)S(=O)(=O)c2cc3c(cc2C)NC(=O)CO3)c(OC)c1 (stereo not drawn)	.	-23%	.	-3%[46.1 µM]
N#CC(=C(/N)Sc1ccccc1N)/C(C#N)=C(\N)Sc1ccccc1N	.	-1%&-8%	?	.
O=C(/C=C/c1ccccc1)NCCc1c[nH]c2ccccc12	6%	.	?	-2%[46.1 µM]
c1ccc(OCCSc2ncnc3nc[nH]c23)cc1	7%	.	-2%	21%
Cc1cc2ncn(S(=O)(=O)c3ccc(S(=O)(=O)N4CCCCCC4)cc3)c2cc1C	-7%	.	4%	4%

Compounds above with a thiophene ring, fused or not:
SMILES	RE007 growth inh	2A StopGo	Marburg entry inh	LASV entry inh
CCc1ccc2nc(N(CCN(CC)CC)C(=O)c3cccs3)sc2c1	.	-13%	.	12%[46.1 µM]
CSc1ccc(CNC(=O)Cn2c(-c3cccs3)cc3cc(F)ccc32)cc1	.	-16%	.	-9%[46.1 µM]

Four entries from above, with two lines to a compound.
The line under a structure holds: RE007 growth inh	2A StopGo	Marburg entry inh	LASV entry inh
- Clc1ccc(N2CCN(c3ncnc4c3nc3n4CCCC3)CC2)cc1
→ .	?	.	-18%[46.1 µM]
- Cc1cccc(N2CCN(c3ncnc4c3nc3n4CCCCC3)CC2)c1C
→ .	-14%	.	-16%[46.1 µM]
- CSc1ccc(CNC(=O)Cn2c(-c3cccs3)cc3cc(F)ccc32)cc1
→ .	-16%	.	-9%[46.1 µM]
- CCN(CC)c1cc2c(cc1F)c(=O)c(S(=O)(=O)c1cc(C)ccc1C)cn2Cc1ccccc1
→ .	3%	.	?

More results
SMILES	RE007 growth inh	2A StopGo	Marburg entry inh	LASV entry inh
CC(=O)OC1C(=O)OCC23CCC4(C)OC4C2OC2CC(OC(=O)C=CC=CC(=O)OCCC1C)C3(C)C21CO1 (stereo not drawn)	5.6µM*	.	.	.
CC(C)(C)c1sc(N)nc1-c1ccccc1	-3%	.	-1%	10%
O=C(Nc1ccccc1Cl)O/N=C/c1ccncc1	-5%	.	3%	6%
O=C(N/N=C/c1cc2c(cc1[N+](=O)[O-])OCO2)c1ccccn1	-7%	.	-18%	15%
CC(/C=N\NC(=O)c1cccnc1)c1ccccc1 (stereo not drawn)	10%	.	17%	-5%
COc1cc2nc(-c3cccs3)oc(=O)c2cc1OC	-5%	.	-10%	-12%
CC(C)(C)c1nnc(NS(C)(=O)=O)s1	0%	.	4%	2%
COC(=O)c1c(NC(=O)Cc2cccs2)sc(C(=O)NC2CCCCC2)c1C	4%	.	-28%	-5%
CS(=O)(=O)N(CC(=O)N1CCN(c2ccccc2)CC1)c1ccccc1Cl	3%	.	0%	22%
COc1cccc(/C=N/NC(=O)C(=O)N2CCCC2)c1	1%	.	1%	4%
C=CCN(CC=C)Cc1c(O)ccc2c1oc(=O)c1ccccc12	-16%	.	-29%	0%
CC(O)(c1cccc(F)c1)c1nc(-c2cccc(C(=O)O)c2)cs1 (stereo not drawn)	12%	42%[activator]	.	.
CC1(Cc2ccccc2OC(F)(F)F)C(=O)Nc2ccc(OC(F)(F)F)cc21 (stereo not drawn)	14%	?	.	.
Cc1cccc(NC(=O)COC(=O)c2c(-c3ccccc3)noc2C)c1	-2%	-17%	.	.
Cn1cc(-c2coc3c(C(=O)NCc4cccnc4)cccc23)cn1	27%	-22%	.	.
CCCNC(=O)C1(C)CCCN(C(=O)c2cc(C(C)(C)C)nn2C)C1 (stereo not drawn)	6%	0%	.	.
COc1cccc(CN(C)CCCn2cnc3c(SC)ncnc32)c1	0%	0%	.	.
Oc1ccc(C[C@H]2CNC(=S)N2CC2CCCN2C[C@H](Cc2ccccc2)N2C[C@H](Cc3ccc(O)cc3)N(CC3CCCCC3)C2=S)cc1 (stereo partly drawn)	-10%	-20%	.	.
O=C(Nc1cccs1)Nc1nnc([C@@H]2C[C@H](O)[C@@H](CO)O2)s1	-10%[18.4 µM]	18%	.	.
Cc1cccc(-c2cnc(C(O)c3ccc(-c4ccccc4)cc3)[nH]2)c1 (stereo not drawn)	4%	-13%	.	.
COc1ccc(C(C)(O)c2nc(-c3csc4ccccc34)cs2)cc1 (stereo not drawn)	4%	-2%	.	.
COc1ccc(C(NC(=O)C2CCN(CCOc3ccc(F)cc3)CC2)c2cccs2)cc1 (stereo not drawn)	5%	-21%	.	.
COC(=O)C1=C[C@@H](C(=O)OC)[C@@H]2C3=C(C(=O)C2(C)C)[C@H](c2ccccc2)[C@@H]2C(=O)N(C)C(=O)[C@@H]2[C@@H]3C1	12%	-17%	.	.
CCc1ccc(NC(=O)C(C)OC(=O)Cn2[nH]c(=O)c3ccccc3c2=O)cc1 (stereo not drawn)	6%	-10%	.	.
COc1cc(CN2C(=O)C(C)ON=C2c2ccccc2F)cc(OC)c1 (stereo not drawn)	-11%[18.4 µM]	-18%	.	.
C[C@@H]1CN([C@@H](C)CO)C(=O)CCCn2nncc2CO[C@@H]1CN(C)C(=O)Nc1cccc(Oc2ccccn2)c1	9%	0%	.	.
C#Cc1ccccc1OCCCN1CCC(C(O)(c2ccccc2)c2ccccc2)CC1	-23%	-6%	.	.
CC(=O)C1=CCC(c2ccccc2)N(S(=O)(=O)c2ccccc2)C1 (stereo not drawn)	9%&2%	-26%&-28%	.	.
Cc1ccccc1-c1cccc([C@@H]2C[C@H]3[C@H](CON3C)CN2C)c1	-11%	3%	.	.
C[C@@H]1CN([C@H](C)CO)C(=O)CCCn2nncc2CO[C@H]1CN(C)S(=O)(=O)c1cn(C)cn1	-7%	-24%	.	.
CC1=C(C(=O)N2CCCCCC2)CC(CC(=O)NC2CC2)C(=O)N1Cc1ccccc1 (stereo not drawn)	12%	-6%	.	.
Cc1ccc(Cc2c(C3CCCCC3)nc3ccc(Br)cn23)cc1	-24%	19%	.	.
COC(=O)[C@]12CCCCC=C1N(CCC1=CCCCC1)C(=O)[C@H](CC(=O)NCCc1ccccc1OC)C2	1%	-28%	.	.
CCC(C(=O)NC1CCCC1)n1c(-c2ccncc2)nc2ccccc21 (stereo not drawn)	-2%	-9%	.	.
O=C(NCc1ccc(OC(F)(F)F)cc1)c1cc(-c2ccccc2)nn1CC1CC(c2cccnc2)=NO1 (stereo not drawn)	3%	-10%	.	.
NC(=S)NN=C1CSSC1	?	-29%	.	.
Cc1ccc(C)c(S(=O)(=O)N(C)c2ccc(OC(=O)C3CCN(C(=O)Nc4ccccc4)CC3)cc2)c1	4%	-7%	.	.
CCOC(=O)C(=O)NCC1CCCN1S(=O)(=O)c1cccs1 (stereo not drawn)	2%	-19%	.	.
COc1cc(NC(=O)CN2CCN(C(=O)c3ccco3)CC2)c(C)cc1[N+](=O)[O-]	-6%	-20%	.	.
CC(C)CC1C(=O)N(Cc2cn(CCC3OCCO3)nn2)CCS(=O)(=O)N1Cc1ccc(-c2ccc(F)nc2)cc1 (stereo not drawn)	2%	?	.	.
NC(=O)c1cccc(-c2ccnc3c2CC(C(=O)NCc2ccco2)O3)c1 (stereo not drawn)	-17%[18.4 µM]	-7%	.	.
O=C(Nc1ccncc1)c1cc(C2CCCCN2C(=O)CCc2ccccc2)on1 (stereo not drawn)	-5%	?	.	.
COc1cc2ccc(C(C)=NOC(C)=O)cc2cc1OC	2%	2%	.	.
O=C1c2ccccc2C(c2nnnn2Cc2ccccc2)N1Cc1cccc(F)c1 (stereo not drawn)	-1%&21%	-9%&4%	.	.
Cc1cc(C)c2c(CN3CCN(c4ccccc4)CC3)cc(=O)oc2c1	6%	-19%	.	.

Of the compounds above, 3 have a furan ring, fused or not:
SMILES	RE007 growth inh	2A StopGo	Marburg entry inh	LASV entry inh
Cn1cc(-c2coc3c(C(=O)NCc4cccnc4)cccc23)cn1	27%	-22%	.	.
COc1cc(NC(=O)CN2CCN(C(=O)c3ccco3)CC2)c(C)cc1[N+](=O)[O-]	-6%	-20%	.	.
NC(=O)c1cccc(-c2ccnc3c2CC(C(=O)NCc2ccco2)O3)c1 (stereo not drawn)	-17%[18.4 µM]	-7%	.	.

Looked up above:
Under RE007 growth inh, `COc1cc2ccc(C(C)=NOC(C)=O)cc2cc1OC` has 2%
Under RE007 growth inh, `CCOC(=O)C(=O)NCC1CCCN1S(=O)(=O)c1cccs1` (stereo not drawn) has 2%

(more compounds)
SMILES	RE007 growth inh	2A StopGo	Marburg entry inh	LASV entry inh
COc1ccc(CNC(=O)c2ccc(-c3ccc(F)c(F)c3)c3ccoc23)cc1OC	10%	?	.	.
O=C(NCc1ccccc1)C(c1ccc(-c2ccccc2)cc1)N1CCN(c2ccccc2F)CC1 (stereo not drawn)	-5%	8%	.	.
COc1cccc(SCc2noc(C(=O)NCCN(C)C)c2C(=O)NCCN(C)C)c1	-12%	-26%	.	.
CC1(C(=O)NS(=O)(=O)c2cccc(C#N)c2)CCN1C(=O)C1(c2ccc(Cl)cc2)CCC1 (stereo not drawn)	6%	22%	.	.
O=C(/C=C1\OCc2ccccc21)c1ccccc1	-28%	6%	.	.

Not all compounds are listed, so the mix of outcomes need not match the whole.
